FGF22 binding – binders of human FGF22 protein, primary screen, FGF22 synaptogenesis inhibitor project, biophysical, thermal shift, single point. recombinant FGF22 thermal shift, SYPRO orange fluorescence; percent of sucrose octasulfate shift, DMSO zero. Fibroblast growth factor 22 (Homo sapiens), Q9HCT0. calls only at 9.99 µM. 340,000 compounds, 1.5% hits;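 active = melting point raised past a set limit in the mean and every replicate; inconclusive = no clear call; three in four hits are not shown here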
Target sequence (Q9HCT0 whole entry, looked up): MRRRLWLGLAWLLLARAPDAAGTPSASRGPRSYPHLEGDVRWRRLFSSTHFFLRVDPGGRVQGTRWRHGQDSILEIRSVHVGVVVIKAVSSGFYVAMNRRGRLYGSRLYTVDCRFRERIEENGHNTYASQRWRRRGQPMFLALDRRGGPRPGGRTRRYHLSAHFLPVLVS
UCH37 inh – inhibitors of human UCH37 deubiquitinase, primary screen, biochemical, Ub-AMC cleavage, fluorescence; Ubiquitin carboxyl-terminal hydrolase isozyme L5 (Homo sapiens), Q9Y5K5; purified proteasome/UCH37; inhibition, % (no concentration beside the values); 330,000 compounds, 0.33% hits;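 active = mean of two replicates above 20%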;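 note: 0% = compound-free wells with enzyme and 100% = wells lacking proteasome; stock transfer was 100 nL into about 20 µL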
Target sequence (Q9Y5K5 whole entry, looked up): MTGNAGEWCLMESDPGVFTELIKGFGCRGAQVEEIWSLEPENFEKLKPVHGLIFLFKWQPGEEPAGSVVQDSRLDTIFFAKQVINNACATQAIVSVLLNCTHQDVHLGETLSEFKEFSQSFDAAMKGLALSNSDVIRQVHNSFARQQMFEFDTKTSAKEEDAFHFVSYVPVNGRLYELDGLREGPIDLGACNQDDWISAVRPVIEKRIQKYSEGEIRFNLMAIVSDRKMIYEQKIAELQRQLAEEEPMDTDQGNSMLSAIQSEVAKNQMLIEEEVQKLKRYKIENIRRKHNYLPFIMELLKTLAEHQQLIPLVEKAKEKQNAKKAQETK
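Material: human UCH37 enzyme supplied as purified proteasome complex / Amount: 0.15 nM proteasome as dispensed / Buffer or medium: pH 7.4 Tris-HCl (50 mM) with ovalbumin, ATP-MgCl2, DTT / Times: preincubation 30 min, reaction 25 min, room temperature / Technique: AMC fluorescence from Ub-AMC cleavage, excitation 355 nm, emission 460 nm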
E coli growth – E. coli growth inhibition, primary screen, OD600; 330,000 compounds, 0.21% hits; OD600 absorbance (concentration not given with the values); Escherichia coli growth, 23 h; active compounds read low;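 active = OD600 absorbance below the run mean of sample wells minus 3.6 SD, in any replicate, cut at about 0.56 in these data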;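 note: stock transfer was 300 nL into about 60 µL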
A1 inh – caspase 3/7 activation in MEF A1-2A-BIM cells, primary screen, A1 inhibitor project, cell-based, luminescence, HTS. Caspase-Glo 3/7 luminescence, 3 h; percent of clofoctol response, vehicle zero. caspase activation, % (test concentration not listed). 330,000 compounds, 0.066% hits. AID 2462, 2010;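 active = over half of replicate activation scores above 10%, or exactly half above 10 with the replicate mean above 10; inconclusive = replicate mean below 10 yet half the replicates above 10; inactive = over half of replicates below 10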;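 note: wells of about 30 µL received 50 nL stock; many hits fall short of the cut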
T cruzi inh – inhibitors of intracellular T. cruzi growth, primary screen, luminescence, NIH3T3 host cells. T. cruzi beta-gal in NIH3T3, 90 h. inhibition, % (test concentration not listed). 300,000 compounds, 1.4% hits;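 active = mean inhibition across valid replicates above about 55%, limit read from the data; inconclusive = mean below that limit but half or more replicates reach it; inactive = mean below it, under half of replicates reach it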;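 note: signal also drops with host cell toxicity which is not excluded here; 0% = plate median of DMSO wells and 100% = zero luminescence signal; higher percent means less beta-gal luminescence so fewer parasites; stock transfer was 50 nL into about 50 µL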
rRNA inh HTS – reduced GFP signal of wild-type E. coli, primary screen, bacterial rRNA inhibitor project, GFP/RFP fluorescence, OD600, single point; E. coli WT GFP vs humanized-ribosome RFP mutants, 24 h; active compounds read low; DMSO median 0, no signal -100; GFP signal change (wild-type ribosome), % (test concentration not listed); 350,000 compounds, 1.6% hits; AID 720706, 2013;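 active = significant combined selectivity score with lowered wild-type GFP, culture density cut under 30%, mutant RFP and density less affected; inactive = any of these conditions unmet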; note: one replicate is shown; some compounds called inactive have numbers as strong as hits
MLL AF4-AF9 inh – inhibitors of AF4 peptide binding to AF9, primary screen, biochemical, AlphaScreen, biotin-AF4 peptide, FLAG-AF9, single point. inhibition, % at 10 µM. Protein AF-9 (Homo sapiens), P42568. 350,000 compounds, 0.47% hits;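 active = every replicate reaching a set inhibition limit, whatever the replicate mean, cut at about 25% in these data; inconclusive = mean inhibition reaches that limit but some replicates miss it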;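 note: 0% = plate neutral control median and 100% = total signal loss; the record names both 10 and 1 µM as test concentration; the first replicate is given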
Target sequence (P42568 whole entry, looked up): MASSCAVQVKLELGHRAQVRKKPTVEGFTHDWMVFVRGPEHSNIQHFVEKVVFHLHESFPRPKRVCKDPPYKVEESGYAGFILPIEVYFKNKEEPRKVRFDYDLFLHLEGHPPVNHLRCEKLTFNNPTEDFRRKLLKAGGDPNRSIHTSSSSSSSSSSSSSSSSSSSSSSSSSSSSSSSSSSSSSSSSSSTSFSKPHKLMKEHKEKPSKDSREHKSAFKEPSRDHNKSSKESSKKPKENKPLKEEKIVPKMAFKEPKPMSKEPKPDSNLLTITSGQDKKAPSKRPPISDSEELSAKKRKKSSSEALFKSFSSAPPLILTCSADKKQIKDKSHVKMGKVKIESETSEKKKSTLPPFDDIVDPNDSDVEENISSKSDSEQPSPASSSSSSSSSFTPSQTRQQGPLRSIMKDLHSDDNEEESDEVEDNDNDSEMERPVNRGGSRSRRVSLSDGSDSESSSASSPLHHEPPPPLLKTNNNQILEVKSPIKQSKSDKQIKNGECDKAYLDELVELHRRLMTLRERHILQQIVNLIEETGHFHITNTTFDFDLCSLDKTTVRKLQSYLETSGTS
Beta cell apopt – inhibitors of cytokine-induced beta cell apoptosis, primary screen, luminescence; INS-1E cytokine-induced death, ATP luminescence, 48 h; percent of positive-control rescue, neutral wells zero; 300,000 compounds, 0.8% hits; protection from apoptosis, % (concentration not given with the values); AID 435005, 2010;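 active = all replicates at 75% or more, or half of them and the mean; inconclusive = half reach 75% but not the mean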;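 note: 0% = cytokine-treated negative control wells and 100% = positive control rescue; higher means more ATP so stronger rescue from cytokine killing; wells of about 40 µL received 100 nL stock; the first replicate is given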
rRNA inh HTS OD600 – also measured in rRNA inh HTS; calls as there; OD600 change, %; measured here: OD600 growth;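 optical density of the mix in the first replicate; 0 = DMSO median and -100 = no signal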
rRNA inh HTS RFP – also measured in rRNA inh HTS; calls as there; RFP signal change, %; measured here: RFP humanized mutant strains;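 first replicate; 0 = DMSO median and -100 = no signal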
* marks the source's active call; other numbers are inactive results; i = inactive; ? = inconclusive; . = not tested or not shown.

The line under a structure holds: FGF22 binding	UCH37 inh	E coli growth	A1 inh	T cruzi inh	rRNA inh HTS	rRNA inh HTS OD600	rRNA inh HTS RFP	MLL AF4-AF9 inh	Beta cell apopt
CSc1nc(N)c(NC(=O)c2ccc(Br)o2)c(=O)[nH]1
→ i	1.5	0.72	0.7	-6	22	11	1.7	-3.2	-1
Cc1ccc(Cl)cc1N1CCN(C(=O)Cc2cn(C)c3ccccc23)CC1
→ .	1.9	0.7	0.4	0	.	.	.	.	-4
O=C(c1ccc(NC(=O)C(c2ccccc2)c2ccccc2)cc1)c1ccc(C(=O)O)c(C(=O)O)c1
→ .	4.9	0.62	1.6	2	-3	4	6.2	-1.1	-3
Cc1cc(C)cc(C(=O)NCCC(=O)N2CCC3(CC2)NCCc2[nH]cnc23)c1
→ i	4.5	0.69	-0.4	-5	14	21	0.9	1.5	-4
COc1ccc(Cn2c(=N)c(C(=O)NC3CCCCC3)cc3c(=O)n4ccccc4nc32)cc1
→ i	.	.	0.8	22	4	-7	0.2	-2.4	12
Cc1ccc(N2C(=O)NC(NS(=O)(=O)c3ccccc3)(C(F)(F)F)C2=O)cc1 (stereo not given)
→ i	0.7	0.71	-0.8	0	0	4	-1.6	1.5	4
CCN(CC)S(=O)(=O)c1cccc(C(=O)Nc2ccc(S(=O)(=O)NC3=NCCCCC3)cc2)c1
→ i	-5.1	0.7	1.2	-11	1	-1	0.6	0.4	6
Cc1ccc(OC(=O)c2cc(C)nn2C(C)(C)C)cc1
→ i	3.8	0.66	1.6	-26	9	6	0.8	-0.5	1
O=C(COC(=O)/C=C/c1ccc2ccccc2n1)NNC(=O)c1ccc([N+](=O)[O-])cc1
→ i	2.2	0.7	.	.	11	15	-2.1	-4.0	.
Cc1ccc(N(C)C(=O)N2CCN(S(=O)(=O)c3ccc4ccccc4c3)CC2)cc1
→ .	2.2	0.67	0.3	40	.	.	.	.	7
O=C(Nc1ccc(S(=O)(=O)NCCc2ccccc2)cc1)c1ccco1
→ i	2.6	0.63	-1.4	-14	-11	-8	9.7	3.5	8
COc1ccc2ccccc2c1CNC(C)c1ccccc1 (stereo not given)
→ i	2.8	0.66	0.8	21	-4	-3	-3.1	0.2	9
CC(C)COc1ccc(C(=O)OCC(=O)N(C)CC(=O)Nc2ccc(F)cc2)cc1
→ i	2.6	0.69	-0.2	-13	5	11	0.6	-1.1	0
Cc1ccc(/C=N/NC(=O)CNC(=O)c2ccc(C)c([N+](=O)[O-])c2)o1
→ i	.	.	-0.1	-7	16	24	0.3	0.1	-8
CCO[C@H]1OC(C(=O)NCc2nc3ccccc3[nH]2)=C[C@@H](c2ccccc2)[C@@H]1CCCO
→ i	1.3	.	1.2	-6	-10	-7	-5.5	1.0	-6

The line under a structure holds: FGF22 binding	UCH37 inh	E coli growth	A1 inh	T cruzi inh	rRNA inh HTS	rRNA inh HTS OD600	rRNA inh HTS RFP	MLL AF4-AF9 inh	Beta cell apopt
Cc1ccc(Sc2ccc(CO)cc2[N+](=O)[O-])cc1
→ i	5.0	0.66	-0.8	-4	-49	-73	-17	8.2	12
O=C1CSC(=S)N1CC1CCCO1 (stereo not given)
→ .	3.8	0.66	0.8	1	.	.	.	.	-9
COc1ccc(N=c2scc(-c3ccc(OC)cc3)n2CCO)cc1
→ .	1.2	0.65	0.3	22	.	.	.	.	4
CCCC(=O)N1c2ccccc2C(N(C(C)=O)c2ccccc2)CC1C (stereo not given)
→ .	5.2	0.7	0.3	9	.	.	.	.	0
O=[N+]([O-])c1ccc2c(c1)nnn2-c1ccccc1
→ i	1.4	0.65	-0.5	-13	14	11	2.3	-5.6	5
COc1cccc(-n2nnc3c(=O)n(CC(=O)N4CCC(C)CC4)cnc32)c1
→ i	2.9	0.74	-0.5	1	1	3	0.3	-24	9
O=C(O)C1OC(Oc2cc3oc(-c4ccccc4)cc(=O)c3c(O)c2O)C(O)C(O)C1O (stereo not given)
→ i	6.2	0.68	-1.3	-14	17	1	-5.9	-35	-3
CCC1=NN(C(=O)C(=O)Nc2ccccc2OC)C(O)(C(F)(F)F)C1 (stereo not given)
→ .	4.7	0.68	-0.1	-17	.	.	.	.	8
Cn1nc(-c2ccc(Cl)cc2)c2cc(C(=O)N3CCOCC3)sc21
→ i	4.7	0.78	-0.3	11	-11	-5	-10	2.6	-11
CC1CCN(CCCNC(=O)c2ccc3c(=O)n(Cc4ccc(Cl)cc4)c(=S)[nH]c3c2)CC1
→ i	.	.	0.0	8	-34	-40	55	8.5	-6
CN(C)c1nc(Oc2ccc(=O)n(-c3ccccc3)n2)nc(N2CCOCC2)n1
→ .	6.7	0.68	-0.1	-5	.	.	.	.	-2
[O-][n+]1ccccc1SC/C=C/c1ccccc1
→ i	-0.2	0.65	-0.9	-33	4	3	3.6	-1.8	-2
CCN(CC(=O)Nc1c(F)cccc1F)C(=O)c1ccc(S(=O)(=O)N2CCCCCC2)cc1
→ i	4.0	0.7	.	.	-2	-1	-3.7	?	.
CC1(c2nnc(Cc3ccccc3)o2)CC(c2ccc(F)cc2)=NO1 (stereo not given)
→ i	3.6	0.68	-0.7	-15	-4	3	-0.5	-3.2	-2
CCCOC(=O)CC1C(=O)NCCN1Cc1ccccc1C (stereo not given)
→ i	5.9	0.72	0.4	-6	-2	4	3.5	-14	-14

The line under a structure holds: FGF22 binding	UCH37 inh	E coli growth	A1 inh	T cruzi inh	rRNA inh HTS	rRNA inh HTS OD600	rRNA inh HTS RFP	MLL AF4-AF9 inh	Beta cell apopt
Clc1cccc(Cl)c1-c1noc(CN2CCOCC2)n1
→ i	0.7	0.64	1.2	-3	-2	6	1.6	2.0	-7
CCCS(=O)(=O)n1nc(-c2ccc(Br)cc2)cc1N
→ i	5.2	0.72	0.4	18	-7	-21	-4.2	2.7	.
Cc1ccc(SCCNS(=O)(=O)c2ccc(F)cc2)cc1
→ .	2.5	0.71	-0.5	-4	.	.	.	.	-5
Cc1ccc(-n2cc(CNC(C)Cn3cncn3)c(-c3ccc(F)cc3)n2)cc1 (stereo not given)
→ .	3.8	0.69	0.3	19	3	4	1.0	3.4	-1
N/C(=N\OS(=O)(=O)c1ccc(Cl)cc1)c1cccnc1
→ .	2.1	0.69	-0.6	.	.	.	.	.	4
COc1cc(NC(=O)c2cc(C)no2)c(OC)cc1Cl
→ i	-83	0.66	-0.4	0	8	11	-0.1	-2.1	-2
O=c1oc2ccccc2c(Nc2ccc(F)cc2)c1[N+](=O)[O-]
→ i	7.3	0.69	-0.1	1	-9	-10	-1.9	0.1	12
Cc1ccc(C)c(Oc2nnnn2-c2ccccc2)c1
→ .	2.9	0.71	-1.0	-4	.	.	.	.	-14
CC(Oc1ccc(F)cc1)C(=O)Nc1cc(S(=O)(=O)N2CCOCC2)ccc1N1CCCCC1 (stereo not given)
→ i	1.5	0.63	0.6	46	4	-1	-1.7	0.9	-3
CC1(c2cnc(Nc3ccccc3)s2)CCC(=O)O1 (stereo not given)
→ .	0.3	0.74	0.4	3	.	.	.	.	-3
Cc1ccc(N2CCN(/N=C/C(Cl)=C/c3ccccc3)CC2)cc1
→ i	.	.	-0.3	15	-6	-1	-0.9	-2.4	3
O=C(CNC(=O)C1CC(=O)N(c2cccc3ccccc23)C1)Nc1ccccc1Br (stereo not given)
→ i	8.3	0.73	2.9	.	-2	0	0.4	-2.7	-1
NC(=O)CSc1oc(-c2ccco2)nc1S(=O)(=O)c1ccc(F)cc1
→ .	3.6	0.69	1.1	-2	.	.	.	.	-3
COc1cccc(/C=C/C(=O)OCC(=O)c2ccc(C)c(C)c2)c1OC
→ i	-13	0.7	-0.1	.	-7	-43	-4.3	-2.5	0
Cc1nc2n(n1)C(c1ccccc1)C1=C(CC(c3ccco3)CC1=O)N2 (stereo not given)
→ .	-2.0	0.69	0.3	-7	.	.	.	.	-7

The line under a structure holds: FGF22 binding	UCH37 inh	E coli growth	A1 inh	T cruzi inh	rRNA inh HTS	rRNA inh HTS OD600	rRNA inh HTS RFP	MLL AF4-AF9 inh	Beta cell apopt
O=C(NC(=S)Nc1cccc2[nH]ncc12)c1ccccc1
→ i	4.3	0.73	2.1	-2	1	22	4.8	-1.9	-14
N=C(c1cccc([N+](=O)[O-])c1)N1CCCCCC1
→ .	2.4	0.69	2.0	-5	.	.	.	-2.0	0
Nc1cc(C(F)(F)F)cc2c1SCC(=O)N2
→ .	2.0	0.69	-0.2	1	.	.	.	.	-4
COC(=O)C1SCCN1S(=O)(=O)c1ccc(Cl)cc1 (stereo not given)
→ i	2.1	0.7	-0.2	-10	-1	0	-3.0	-2.1	4
CCn1c(CSc2nnc3ccccn23)nc2cc(C(=O)O)ccc21
→ .	1.8	0.69	0.5	6	.	.	.	.	-5
COc1ccc(/C=C/CN2CCCC(CCC(=O)NCc3ccc(F)c(F)c3)C2)cc1 (stereo not given)
→ i	2.9	.	0.2	68*	-8	-16	5.4	4.6	-2
COC(=O)Nc1ccc(S(=O)(=O)N2CCCC(C(=O)Nc3cccnc3)C2)cc1 (stereo not given)
→ .	2.4	0.72	0.5	1	.	.	.	.	0
O=c1ccc(-c2ccccc2)no1
→ i	4.3	0.68	1.0	-5	22	6	-0.2	.	.
O=C(C1CC(=O)N(c2ccc(F)cc2)C1)N1CCC(c2nc3ccccc3[nH]2)CC1 (stereo not given)
→ i	0.3	0.67	0.7	-2	-1	0	-2.1	-2.1	-1
CC/C(=C\C(=O)c1ccncc1)Nc1ccc(O)cc1
→ .	17	0.72	0.0	14	.	.	.	.	-16
O=C(NCCN1CCOCC1)c1ccc(Cl)c(S(=O)(=O)N2CCCCCC2)c1
→ .	1.3	0.73	-0.3	3	.	.	.	.	-4
CC(=O)N(C)c1ccc(NC(=O)Cc2cccs2)cc1
→ i	4.4	0.67	0.9	6	5	8	0.5	2.5	.
COc1ccc(NC(=O)C2=CC(c3ccc(OC)c(OC)c3)=NS(=O)(=O)N2C)cc1
→ i	5.0	0.8	.	-1	-5	-13	0.4	9.6	2
Cc1ccc(O)c(N=Cc2ccc(C)s2)c1
→ .	8.6	0.63	0.1	2	.	.	.	.	5
COc1ccc(Nc2nc(CN3CCOCC3)nc3sc4c(c23)CCC(C)C4)cc1OC (stereo not given)
→ .	3.7	0.7	0.0	-20	.	.	.	.	1
COc1ccc(/C=C2\SC(N3CCc4ccccc4C3)=NC2=O)cc1OC
→ i	2.4	0.65	-0.5	-7	-19	-34	-2.2	7.3	1
Cc1noc(C)c1COc1ccc(C(=O)N(C)CCOc2ccccc2)cc1
→ i	2.2	0.67	-0.6	.	-3	-27	3.1	0.0	3

Source: PubChem (several laboratories)

Not all compounds are listed; rates above refer to the full screens.
